Source: PubChem BioAssay (Fisher Drug Discovery Resource Center)
NPYLR7 ag – activates Aedes aegypti NPYLR7 receptor; HEK293T NPYLR7/Galpha15, GCaMP6s calcium fluorescence; activation, % at 10 µM; 270,000 compounds, 0.15% hits; in the data active = activation above about 40%;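 also: 0% = vehicle and 100% = reference agonist at the receptor; some compounds past the cut are filed as inactive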
NPYLR7 ag max-min – second read-out of NPYLR7 ag, no call of its own (marks repeat the call); activation, %; measured here: Max-Min RFU normalised activation; some inactives read as strong as hits;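 span of the calcium signal over five minutes; 0% = vehicle and 100% = native peptide agonist; compound fluorescence can raise it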
* = called active by the depositor; & = joins results of further samples.

SMILES	NPYLR7 ag	NPYLR7 ag max-min
CN(c1ccccc1)N1C(=O)c2ccccc2NC12CCN(CC(=O)Nc1ccccc1F)CC2	1	2
Cc1cccc(Cn2c(=O)c3c(nc4n(C5CCCC5)c(C)cn34)n(C)c2=O)c1	7	5
O=C(NCc1ccc2c(c1)OCO2)c1cccnc1N1CCN(C(=O)c2ccccn2)CC1	26	13
O=[N+]([O-])c1ccc(C=NNc2ccc(Cl)cc2)o1	4	3
COc1cc2c(cc1OC)C1CN(C(=O)Nc3cccc(C#N)c3)CC(=O)N1CC2 (stereo not given)	7	11
CN(Cc1ccccc1)Cc1nc2c(c(=O)n(C)c(=O)n2C)n1Cc1ccc(Cl)c(Cl)c1	-1	-5
O[C@@H]1[C@@H](O)C=C2CCN3Cc4cc5c(cc4[C@H]1C23)OCO5 (stereo not given in full)	-3	-6
COc1ccc(NC(=O)CCN2C(=O)c3ccccc3C2=O)cc1	-5	-10
COc1cc(C=NN2CCN(c3ccccc3)CC2)cc(Br)c1O	-7	-8
CC(C)c1csc(CN2CCCC(N(C)CCc3ccccn3)C2)n1 (stereo not given)	2	2
O=C(Nc1cccc(-c2cc3ccccc3[nH]2)c1)C1CCCN(CCCn2cccn2)C1 (stereo not given)	10	5
COc1ccc(CCNC(=O)c2cc(=O)c(OCc3ccccc3)cn2C)cc1OC	-1	-2
O=C(c1csc(CSc2nnc(-c3ccco3)n2-c2ccccc2)n1)N1CCN(c2ccc([N+](=O)[O-])cc2)CC1	15	10
CCCCNC(=O)c1cc2nc(-c3ccc(OCC)cc3)cc(C)n2n1	3	2
N#Cc1nc(-c2ccc(S(=O)(=O)N3CCCCC3)cc2)oc1NCc1cccnc1	-3	10
O=C(CCc1cccs1)Nc1ccccc1N1CCCC1	3	0
CSc1nnc(SCC(=O)NCc2ccc(N(C)C)cc2)s1	13	6
Cc1nccc(-c2ccccc2)c1C(=O)N1CCOC(C(F)(F)F)C1 (stereo not given)	-4	-9
O=c1oc2cc(O)ccc2s1	-12	-17
CCOC(=O)C1CCCN(C(=O)c2c(C)c(CC)c(C)n2Cc2cccc(OC)c2)C1 (stereo not given)	16	25
NC(=O)C1(c2ccccc2)CCN(C(=O)/C=C/c2ccncc2)CC1	1	-1
CN(C)CCCN(C(=O)c1cccs1)c1nc2ccc(Cl)cc2s1	0	0
CCc1cccc(N2C(=O)CSC2c2ccc(NC(=O)C3CC3)cc2)c1 (stereo not given)	26	27
CCn1c(C)cc(C(=O)CSc2nnc(C3CC3)n2C2CC2)c1C	8	17
CN(C(=O)C1CCCN1C(=O)c1cc(Cl)cc(Cl)c1)C1CCS(=O)(=O)C1 (stereo not given)	5	3

Six structures out of the list, ordered by length of the SMILES, high to low.
SMILES	NPYLR7 ag	NPYLR7 ag max-min
CN(Cc1ccccc1)Cc1nc2c(c(=O)n(C)c(=O)n2C)n1Cc1ccc(Cl)c(Cl)c1	-1	-5
O=C(NCc1ccc2c(c1)OCO2)c1cccnc1N1CCN(C(=O)c2ccccn2)CC1	26	13
O[C@@H]1[C@@H](O)C=C2CCN3Cc4cc5c(cc4[C@H]1C23)OCO5 (stereo not given in full)	-3	-6
CCn1c(C)cc(C(=O)CSc2nnc(C3CC3)n2C2CC2)c1C	8	17
COc1ccc(NC(=O)CCN2C(=O)c3ccccc3C2=O)cc1	-5	-10
CSc1nnc(SCC(=O)NCc2ccc(N(C)C)cc2)s1	13	6

Profiles from above. Screens in order: NPYLR7 ag, NPYLR7 ag max-min
O=[N+]([O-])c1ccc(C=NNc2ccc(Cl)cc2)o1 is listed with 4, 3
CCn1c(C)cc(C(=O)CSc2nnc(C3CC3)n2C2CC2)c1C is listed with 8, 17
COc1cc(C=NN2CCN(c3ccccc3)CC2)cc(Br)c1O is listed with -7, -8

(further entries)
SMILES	NPYLR7 ag	NPYLR7 ag max-min
Fc1ccc(/C=C/CN2CCCC(OCc3cccnc3)C2)cc1 (stereo not given)	4	3
CCN(C(=O)c1cc(-c2cnc(N)nc2)nc2c(C)cccc12)C1CCCCC1	-4	-7
CNC(=O)Nc1cn(C)c2ccccc12	2	-4
O=S(=O)(NC1CCC(C(F)(F)F)CC1)c1ccccc1 (stereo not given)	4	3
Cc1ccc(C)c(OCCCN(C)C(=O)c2cn3c(n2)CNCC3)c1	4	0
CCCc1cc(C(=O)N2CCCC3(CC2)CNC(=O)O3)ccn1 (stereo not given)	5	7
CC(C)NC(=O)c1sc(N2CCCC2)nc1Cl	1	-1
CCOc1c(C)cnc2c1c(=O)n(CC(=O)NCCOC)c(=O)n2C	-5	-6
O=[N+]([O-])c1ccc(N=Nc2c(O)[nH]c3c(I)cccc23)cc1	-1	-5
CCOC(=O)C1=C(O)/C(=C\c2ccc(O)c(C)c2)SC1=Nc1cccc(C(F)(F)F)c1	3	-1
CC(C)(Oc1ccc(Cl)cc1)C(=O)OCc1cccnc1	-23	-34
CCCOc1nc(-c2ccc(OC)cc2)n(-c2cccc(NC(=O)c3cccs3)c2)n1	14	28
CC(C)C1=C2CCCCC2NC(=O)N1 (stereo not given)	11	3
COc1cccc(-n2nnc(C(=O)Nc3nccs3)c2C)c1	0	-4
COC(=O)c1cccc(NC(=O)N2CCN(CCCOC(c3ccc(Cl)cc3)c3ccc(Cl)cc3)CC2)c1	3	8
CCOc1ccc(C(=O)CCC(=O)N2CCn3cncc3C2)cc1C	7	3
CNc1cnc(-c2ccc(N3CCN(C)CC3)cc2)cn1	3	0
Cc1ccc(NCN2C(=O)/C(=C\c3ccccc3)SC2=S)cc1	2	4
Cc1cc(OCC(=O)NNC(=O)C(C)(C)C)cc(C)c1Cl	-2	-6
Cc1c(S(=O)(=O)CCNC(=O)NCc2ccccc2)c2ccccc2n1Cc1ccccc1	2	5
Cc1c(C(=O)N2CCCC2)cc(-c2ccc(Cl)cc2)n1-c1cccc(F)c1	5	4
CC(NC1CC(C)(C)CC(C)(C)C1)c1nncn1C(C)C (stereo not given)	7	4
CN1CCN(c2nc3c(c(=O)[nH]c(=O)n3C)n2Cc2cccc(Cl)c2)CC1	2	4
CCOc1ccc(N2C(=O)CSC2c2cccc(Br)c2)cc1 (stereo not given)	-6	-13
Cc1ccc(CNc2oc(-c3ccc(S(=O)(=O)N4CCCC(C)C4)cc3)nc2C#N)cc1 (stereo not given)	-3	5
More results.
SMILES	NPYLR7 ag	NPYLR7 ag max-min
CC1(C(=O)NS(=O)(=O)c2ccc(Cl)cc2)CCN1C(=O)CCc1ccc(Cl)cc1Cl (stereo not given)	5	2
Nc1ncc(Cc2ccc(F)cc2)s1	17	26
COC(=O)Cn1c(=NC(=O)CCCS(=O)(=O)Cc2ccccc2)sc2cc(F)cc(F)c21	-7	-16
Cc1ccc(-n2c(=O)c3ccccc3n(CC(=O)N3CCCC3)c2=O)cc1Cl	-3	-2
COCCNC(=O)Cn1cc(OC)c(=O)cc1CN1CCC(C)CC1	3	2
COc1ccc(-n2c3c(c(=O)[nH]c2=O)C(NC(=O)CCc2ccccc2)(C(F)(F)F)C(=O)N3)cc1 (stereo not given)	-10	-16
CC(C)n1cc(C(=O)N2CCN(Cc3ccccc3)CC2)c2nn(-c3ccccc3)c(=O)c-2c1	-6	-9
CCOC(=O)C(N=Nc1ccc(Cl)cc1Cl)=C(C)O	-5	-8
CCCC(O)CN1CC(C)(C)CN(C(=O)CCc2ccccc2)CC1=O (stereo not given)	9	22
COc1cc(-c2nc3ccc(Br)cn3c2NC2CCCCC2)ccc1OC(=O)c1ccc(C)c([N+](=O)[O-])c1	-2	12
c1ccc(CCNc2nc(-c3ccccc3)cs2)cc1	-21	-29
Cc1c(C(=O)NCC(F)(F)F)sc(=O)n1Cc1ccc(-c2ccccc2)cc1	6	4
Cc1ccccc1C=C1N=C(c2cccc(OC(F)F)c2)OC1=O	-1	14
Cc1cccc(C)c1OCCCN(C)C(=O)c1ccc2[nH]c(=O)c(=O)[nH]c2c1	-4	-10
CN(CC1COc2ccccc2O1)C(=O)Nc1n[nH]c(-c2ccco2)n1 (stereo not given)	-2	-3
CC1OCC23CC[C@@]4(C)CCC(C)(C)C[C@H]4[C@]2(C)CCC12C3CC[C@@]1(C)C2C(=O)CC(=O)[C@@H]1C (stereo not given in full)	4	1
CCCCSc1nc2c(c(=O)[nH]1)C(c1cccc(F)c1)C(C(=O)OC)C(C)=N2 (stereo not given)	0	-4
COCCN(Cc1cn(C)nc1-c1cccc(Cl)c1)C(C)C	5&0	2&-3
CN(C1CCCCC1)S(=O)(=O)c1ccc(S(=O)(=O)N2CCCC2)cc1	2	5
CC1c2ccccc2OC1C(=O)NS(=O)(=O)/C=C/c1ccccc1 (stereo not given)	2	4
O=[N+]([O-])c1ccc(C=Nn2cnn(Cc3ccccc3Cl)c2=S)o1	17	13
COc1ccc(NC(=O)Cn2cc(OC)c(=O)cc2CSc2ccc(C)cc2)cc1	-2	-7
CCOCC(=O)NCc1ccc2c(c1)cc(C)n2C	6	2
COCCN1C(=S)NC(c2cccc(C#N)c2)C(C(=O)Nc2cc(C)on2)=C1C (stereo not given)	2	1
CCOC(=O)c1[nH]c2ccc(OC)cc2c1NC(=S)N1CCC(C(=O)OCC)CC1	-8	-12

Pulled by structure from the list above, 7 records:
SMILES	NPYLR7 ag	NPYLR7 ag max-min
CC1(C(=O)NS(=O)(=O)c2ccc(Cl)cc2)CCN1C(=O)CCc1ccc(Cl)cc1Cl (stereo not given)	5	2
CC(C)n1cc(C(=O)N2CCN(Cc3ccccc3)CC2)c2nn(-c3ccccc3)c(=O)c-2c1	-6	-9
CCCCSc1nc2c(c(=O)[nH]1)C(c1cccc(F)c1)C(C(=O)OC)C(C)=N2 (stereo not given)	0	-4
COCCN(Cc1cn(C)nc1-c1cccc(Cl)c1)C(C)C	5&0	2&-3
CCCC(O)CN1CC(C)(C)CN(C(=O)CCc2ccccc2)CC1=O (stereo not given)	9	22
COCCNC(=O)Cn1cc(OC)c(=O)cc1CN1CCC(C)CC1	3	2
CCOC(=O)c1[nH]c2ccc(OC)cc2c1NC(=S)N1CCC(C(=O)OCC)CC1	-8	-12

Next section:
SMILES	NPYLR7 ag	NPYLR7 ag max-min
Cc1ccc(N2CCN(Cc3ccccc3C)C(C)C2=O)cc1Cl (stereo not given)	6	8
CCN1C(=O)c2cccc3c(S(=O)(=O)N4CCN(CCO)CC4)ccc1c23	-3	-5
CCc1nnsc1C(=O)NC(c1ccncc1)c1ccc(C)cc1 (stereo not given)	0	7
O=C(Cn1nc2n(c1=O)CCCCC2)Nc1cccc(C(F)(F)F)c1	1	1
CC(=O)SC[C@@H](C)C(=O)N1CCCC1C(=O)NCc1ccccc1Sc1ccccc1CO (stereo not given in full)	25	11
CCN(CCCNC(=O)Cc1c(C)nc2nc(N)nn2c1C)c1ccccc1	-6	5
Cc1csc2nc(=O)c3cnc4c(F)cccc4c3n12	-2	-2
CNC(=O)[C@@H]1[C@H]2CN(C(=O)c3cccs3)CCN2C[C@H]1c1ccccc1	1	6
C=CCN1C(=O)NC(c2cc(OC)cc(OC)c2)C2=C1CN(CC1CCCO1)C2=O (stereo not given)	-2	8
CC(Nc1cccc(CO)c1)c1nc(Cc2ccc(F)cc2)no1 (stereo not given)	1	-1
O=C1CSC(c2ccccc2)N1Cc1ccco1 (stereo not given)	-9	-10
CCOc1ccc(-n2c(C(C)N(CCC(C)C)C(=O)c3ccc(Cl)cc3)nc3ccccc3c2=O)cc1 (stereo not given)	9	18
CSc1ccc(-c2nc(C)c(C(C)=O)n2O)cc1	0	-1
O=C(CS(=O)(=O)c1ccc(O)cc1)Nc1c(Cl)cccc1C(F)(F)F	2	3
COCCCN(Cc1cccn1Cc1cccc(Cl)c1)C(=O)c1cccc(C(F)(F)F)c1	17	27
CCN(CC)S(=O)(=O)c1ccc(SCc2ccccc2C(F)(F)F)c([N+](=O)[O-])c1	1	-1
CCCCCC(=O)Nc1c(-c2ccccc2OC)nc2cc(C)ccn12	-4	0

Only part of the results is shown; rates above refer to the full screens.
